Source: PubChem BioAssay
Rango-impB inh = prevents formation of the Rango-importin beta complex. Q14974. Rango CFP/YFP FRET sensor + importin beta, 45 min. Potency, µM (titrated, usually from 92.2 µM), without a hit: at the highest dose inhibition of complex formation. 340,000 compounds, 0.031% hits; active = rising FRET ratio curve, often small or poorly fitted; inconclusive = mostly compound fluorescence or quenching in the first reads; inactive = flat curves in all reads;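 note: potency is the fitted concentration of half-maximal effect; 0% = DMSO wells and 100% = buffer wells lacking importin beta; nearly all actives have a fitted effect of over 15% in size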
Target sequence (Q14974 whole entry, looked up): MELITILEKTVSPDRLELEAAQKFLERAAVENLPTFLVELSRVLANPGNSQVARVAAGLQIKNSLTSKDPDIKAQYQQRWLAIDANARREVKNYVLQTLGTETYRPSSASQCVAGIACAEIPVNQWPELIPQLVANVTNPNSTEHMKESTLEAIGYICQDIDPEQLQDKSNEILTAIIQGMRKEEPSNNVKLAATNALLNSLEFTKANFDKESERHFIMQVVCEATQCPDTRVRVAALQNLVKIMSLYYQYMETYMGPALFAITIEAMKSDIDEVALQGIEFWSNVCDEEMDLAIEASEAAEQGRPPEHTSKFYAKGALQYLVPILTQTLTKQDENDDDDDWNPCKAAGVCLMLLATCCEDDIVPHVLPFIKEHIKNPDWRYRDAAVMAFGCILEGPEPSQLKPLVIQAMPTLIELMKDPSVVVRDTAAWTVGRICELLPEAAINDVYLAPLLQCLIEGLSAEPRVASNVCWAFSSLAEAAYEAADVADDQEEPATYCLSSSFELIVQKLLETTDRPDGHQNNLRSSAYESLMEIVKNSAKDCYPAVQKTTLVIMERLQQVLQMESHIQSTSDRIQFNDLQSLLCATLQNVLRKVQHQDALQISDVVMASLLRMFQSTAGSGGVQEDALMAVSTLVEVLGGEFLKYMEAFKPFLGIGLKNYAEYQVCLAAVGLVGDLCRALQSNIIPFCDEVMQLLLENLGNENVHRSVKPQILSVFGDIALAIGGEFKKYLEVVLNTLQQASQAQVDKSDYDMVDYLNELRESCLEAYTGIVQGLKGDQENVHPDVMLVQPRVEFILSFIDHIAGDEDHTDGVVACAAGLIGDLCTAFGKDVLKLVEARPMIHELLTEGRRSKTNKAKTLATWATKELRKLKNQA
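Inhibition scored from the CFP 486 nm/YFP 530 nm FRET ratio 45 min after adding 0.125 microM importin beta to 50 nM Rango biosensor preincubated 5 min with compound (room temperature, PBS with DTT, Tween-20, BSA). No-importin wells as positive control.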
miR-21 reporter = miR-21 reporter, rising signal; HeLa miR-21 FLuc reporter, luciferase, 48 h; Potency, µM (series often up to 38.3 µM), for the others: top-dose reporter change, positive = more light; 340,000 tested, under 10 active; active = well fitted rising curve with a large enough effect; inconclusive = small, poorly fitted or top-dose-only effect; inactive = no such curve, though single readings can be large or run the other way;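 note: % of control where 0% means no effect; miR-21 action dims this reporter so a rising signal means less miR-21 action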
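Luminescence from a firefly luciferase reporter carrying a miR-21 binding site downstream, stably expressed under a CMV promoter in HeLa cells that make miR-21 endogenously, reports miRNA modulation after 48 h compound exposure up to approximately 40uM final.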
GLA inh pH 4.5 = inhibitors of human alpha-galactosidase A at pH 4.5 | P06280 | AID 1467 | purified enzyme, 4-MU-alpha-Gal fluorescence, pH 4.5 | 230,000 tested, under 10 active | activity change, negative = inhibition, % at 105 µM; inconclusive = small, poorly fitted or top-dose-only inhibition, or a rising curve; inactive = flat fitted curve, though single readings scatter; no compound was filed as active;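 note: 0% = full activity with enzyme and -100% = basal without enzyme; dose as in the result columns while the protocol names 77 µM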
Rango release inh = inhibitors of RanGTP-induced Rango-importin beta complex dissociation | Potency, µM (top dose mostly 46.1 µM), for the others: at the highest dose activity change, negative = inhibition | O95149+P62826 | Biochemical FRET Rango-importin beta, RanGTP-induced dissociation | 340,000 compounds, 0.071% hits; active means falling FRET ratio curve, often poorly fitted, with flat reads before Ran was added; inconclusive means other falling curves, or compound fluorescence or quenching; inactive means flat or rising ratio curve;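 note: potency is the fitted concentration of half-maximal effect; % of control where 0% means no effect; nearly all actives have a fitted effect of over 45% in size; -100% = wells without RanGTP and RCC1; the record marks most hits as doubtful in a second field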
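Recombinant Rango FRET biosensor (EYFP–snurportin 1 IBB–cerulean CFP10) at 0.1 uM premixed with 0.25 uM importin beta in PBS, 1 mM DTT, 0.02% Tween-20, 0.1% BSA. Compound added 5 min; RanGTP-RCC1 (0.6 uM Ran, 2 mM GTP, 0.2 uM RCC1) then triggers release, read at 45 min.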
Numbers without * were called inactive; ? = inconclusive; . = no result given; & = joins results of further samples. This is a subset. The share of hits here may be higher or lower than overall.

Rango-impB inh,Rango release inh,miR-21 reporter,GLA inh pH 4.5,Compound
1.5%,-3%,.,.,CC(Nc1ccc(Br)cc1)C(=O)Nc1cccc(S(=O)(=O)N2CCOCC2)c1 (stereo not given)
-0.2%,16%,.,.,COc1cc(C(=O)OCC(=O)N2CCN(C(C)=O)CC2)ccc1OCC(C)C
?,-13%&-1%,-2%,-2&-4&5&6,NC(=O)N1c2ccccc2C=Cc2ccccc21
-2.6%,10%,-6%,-8,Cc1cc(C(=O)OCC(=O)Nc2nccs2)c2ccccc2n1
-1.9%,-2%,-5%,.,COc1ccc(OC)c(NC(=O)CCN2CC(C)CC(C)C2)c1 (stereo not given)
-1.3%,-13%,-29%,4,COc1ccc2c(c1)C(=O)N(CCc1ccc(S(=O)(=O)NC(=O)NC3CCCCC3)cc1)C(=O)C2(C)C
-0.4%,16%,0%,-15,Cc1csc(NC(=O)c2cc[n+]([O-])cc2)n1
?,?,25%,.,CCCC[n+]1c2ccccc2cc2ccccc21
3.9%,-11%,-5%,5,CCSCCOC(=O)C1=C(C)N(C)C(=O)NC1c1cc(OC)ccc1OC (stereo not given)
1.3%,2%,.,.,COC(=O)C1=C(C(=O)OC)[C@@H]2N(Cc3ccccc3)c3ccccc3[C@@]23C[C@@H](C(=O)OC)N(C(=O)NC2CCCCC2)C3=N1
-0.4%,3%,5%,.,O=C(N/N=C/c1ccccc1C(=O)O)c1ccncc1
-0.5%,-11%,9%,-8,CCOC(=O)C1(Cc2ccccc2)CCN(Cc2cc(OC)c3c(c2)OCO3)CC1
1.7%,-14%,0%,-1,CCOc1ccc(S(=O)(=O)Nc2ccccc2C(=O)Nc2ccccc2N2CCOCC2)cc1
10%,-15%,1%,5,O=C(Nc1nccs1)c1cccc(S(=O)(=O)N2CCCCC2)c1
-2.0%,-5%,-1%,1,O=C(CSc1ccc2nnc(-c3ccccc3)n2n1)NCc1ccc2c(c1)OCO2
-2.8%,-8%,-2%,-5,COc1ccc(-n2ncc3c(NC(C)C)ncnc32)cc1
6.2%,-3%,-3%,.,COc1ccccc1NC(=O)CCn1c(=O)c2cccn2c2ccccc21
-0.8%,13%,.,.,CC(C)(C)OC(=O)N1CCC(NC(=O)c2[nH]cnc2C(=O)Nc2cccc(Cl)c2)CC1
-0.4%,6%,3%,.,CCN1CCN(c2ncnc3scc(-c4ccc(C)c(C)c4)c23)CC1
?,?,27%,-13,O=C(c1ccccc1)c1c2c(cc3sc4ccccc4[n+]13)-c1cccc3cccc-2c13
-4.0%,14%,-4%,6,Cc1ccc(C(=O)C(C)OC(=O)c2n[nH]c(=O)c3ccccc23)cc1 (stereo not given)
1.1%,4%,-7%,4,O=C(NCCN1CCCCCC1)c1ccc(N2CCCC2=O)cc1
2.0%,21%,-59%,0,CCc1ccc(NC(=O)c2noc3c2CCCCC3)cc1
3.7%,-11%,2%,-1,CCN(CC)CCN1C(=O)C(=O)/C(=C(/O)c2ccncc2)C1c1ccccc1F (stereo not given)
2.0%,-9%,.,.,Cc1ccc(N2CC(NS(=O)(=O)c3cccs3)CC2=O)cc1 (stereo not given)

Other compounds.
Rango-impB inh,Rango release inh,miR-21 reporter,GLA inh pH 4.5,Compound
?,-23%,-18%,.,C/C(=N/Nc1ncc(Br)cn1)c1ccc([N+](=O)[O-])cc1
0.7%,8%,-34%,-2,COC(=O)c1ccccc1NC(=O)c1sc(N)nc1C
-1.4%,-7%,.,.,O=C(CSc1nnc(Nc2ccccc2)s1)NC1CCCC1
-3.7%,0%,3%,.,Cc1cc(OC(C)C(=O)NCCCN2CCOCC2)c2c(C)c(C)c(=O)oc2c1 (stereo not given)
?,?,?,-18,CCOC(=O)c1ccc2c(c1)n(CC)c(/C=C/N(C)c1ccccc1)[n+]2CC
4.8%,11%,-41%&-37%,-10&12,O=C(Nc1cc(-c2ccccc2)[nH]n1)c1ccc(Cl)cc1
6.9%,1%,10%,.,CSc1ccc(/C=N/N(C)S(=O)(=O)c2ccc(C)cc2)cc1
5.0%,1%,-4%,-9,CCOC(=O)c1c(-c2ccc(OC)cc2)csc1NC(=O)CSc1ccccc1
-3.4%,6%,.,.,CC(Sc1nc2ccccc2c(=O)n1CC1CCCO1)C(=O)Nc1ccc(S(N)(=O)=O)cc1 (stereo not given)
-0.9%,-9%,.,.,COc1ccc(CCNC(=S)N2CCN(S(=O)(=O)c3ccc(C)cc3)CC2)cc1
3.7%,12%,-7%,4,O=C(NNC(=S)NCCc1ccccc1)c1ccc(Br)s1
-1.1%,-9%,-22%,0,O=C(CSc1nc2ccccc2c(=O)n1NC(=O)c1ccccc1)c1ccc(Cl)cc1
4.5%,-5%,-5%,.,Clc1ccc(OCCNCCc2ccccc2)cc1
-0.6%,7%,-2%,.,CC(C)(C)c1ccc(C(=O)NCCC(=O)N2CCC3(CC2)NCCc2[nH]cnc23)cc1
0.2%,2%,-46%,2,Cc1cccc(/C(N)=N/OC(=O)C23CC4CC(CC(C4)C2)C3)c1
1.7%,20%,.,.,CCOc1ccc2oc(C(=O)N3CCN(c4ccccc4OCC)CC3)c(C)c2c1
?,-4%,.,.,O=C(NCc1cccc(Br)c1)C1CC2Cn3c(nc4ccccc43)C2N1c1ccccc1 (stereo not given)
?,?,-1%,-10,O=C(O)c1ccccc1-c1ccc(/C=C/c2cc(C(F)(F)F)[nH]c(=O)n2)o1
2.7%,1%,5%,-2,O=C(CN1CCN(c2ncccn2)CC1)N1CCCc2c1c(=O)oc1ccc(O)cc21
3.3%,10%,15%,-7,CCOc1cc(CNCCSc2nnnn2C)cc(Br)c1OCc1ccccc1
-4.5%,-11%,.,.,O=C1CCCCC1Nc1ccc(Br)cc1 (stereo not given)
1.7%,3%,-23%,-2,CCCC(=O)N/C(N)=N/c1nc(C)c2cc(C)ccc2n1
?,?,-12%,.,CCN1CCc2c(sc(NC(=O)c3ccc(S(=O)(=O)N4CCCCCC4)cc3)c2C(=O)NC)C1
5.1%,28%,0%,6,O=C(Nc1cccc(Cl)c1N1CCCCC1)c1ccc(N2CCOCC2)c([N+](=O)[O-])c1
-5.5%,13%,-12%,6,CN(C)/C=C(\C#N)C(=O)N/N=C/c1ccc(F)cc1

Next entries:
Rango-impB inh,Rango release inh,miR-21 reporter,GLA inh pH 4.5,Compound
1.3%,-6%,5%,2,COc1ccccc1N1CCN(C(=O)CCCCCn2c(=O)[nH]c3ccsc3c2=O)CC1
-1.8%,-11%,2%,-2,CCN(CC)S(=O)(=O)c1cc(NC(=O)[C@@H](NC(N)=O)C(C)C)ccc1C
-0.4%,-2%,-7%&1%,1,CCCCN(CCCC)CCn1cnc2c([nH]c3ccc(OC)cc32)c1=O
-0.1%,23%,-2%,-6,CCOC(=O)c1cnc(SCC(=O)Nc2ccccc2C(=O)OC)nc1N
-0.8%,2%,-6%,.,COc1ccccc1-c1coc2c(CN(C)C)c(O)ccc2c1=O
0.2%,-13%,4%,-7,COc1ccccc1CNCc1cc(Br)ccc1OC
-2.0%,10%,10%,-7,CC(=O)OC(C(=O)Nc1ccccc1)C(C)S(=O)(=O)c1ccccc1 (stereo not given)
-0.9%,-10%,-1%,11,O=C(CCCC(=O)NCCc1ccccc1)NCCc1ccccc1
1.5%,2%,-1%,2,COc1ccc(/C=C2\SC(=S)N(c3cccnc3)C2=O)cc1
5.3%,-11%,-5%,.,Cc1c[n+](CC(=O)c2ccccc2)cs1
-3.1%,-11%,.,.,Cn1c(N)c(C(=O)CSc2nc(C3CC3)n(-c3ccccc3)n2)c(=O)[nH]c1=O
2.9%,4%,-2%,2,Nc1ccc(C23CC4CC(CC(C4)C2)C3)cc1
-1.6%,0%,.,.,O=C(COC(=O)c1cc(Cl)cc(Cl)c1)NCc1ccco1
-2.9%,10%,-10%,6,Cc1cc(C)c(C(N)=O)c(SCC(=O)c2ccc(Cl)cc2)n1
-0.4%,-11%,.,.,CN(NC(=O)NN(C)C(=O)c1ccccc1)C(=O)c1ccccc1
-4.4%,6%,-1%,9,CC(=O)N/N=C(\C)CC(=O)NC(C)(C)C
-0.8%,2%,-29%,0,CSc1nccc(Nc2ccccc2)c1C#N
0.0%,-11%,3%,-6,CC1CCc2nc(N)c(C#N)c(-c3ccncc3)c2C1 (stereo not given)
2.3%,6%,-5%,-14,COc1cc(/C=C(\C#N)c2nc3ccccc3s2)cc([N+](=O)[O-])c1O
-0.5%,?,-9%,7,CCOC(=O)CNC=C(C(=O)OCC)C(=O)OCC
-3.6%,-3%,.,.,CCOC(=O)N1CCc2cc(OC)c(OC)c3c2c1cc1cc(OC)c(OC)cc13
1.3%,11%,2%,.,COc1cccc(CNC(=O)CNS(=O)(=O)c2ccc(Br)s2)c1
-2.0%,-1%,-2%,0,Cc1cccc(OCCC(=O)Nc2nnc(C)s2)c1
0.7%,-4%,-1%,-23,CC(C)CNC(=O)NC(=O)COC(=O)C1CSC2(c3ccc(F)cc3)CCC(=O)N12 (stereo not given)
-1.0%,1%,-3%,-4,COc1ccc(CCNC2CC(=O)N(C)C2=O)cc1OC (stereo not given)

Looked up one by one from above, 3 records:
Rango-impB inh,Rango release inh,miR-21 reporter,GLA inh pH 4.5,Compound
-0.8%,2%,-29%,0,CSc1nccc(Nc2ccccc2)c1C#N
1.5%,2%,-1%,2,COc1ccc(/C=C2\SC(=S)N(c3cccnc3)C2=O)cc1
-0.1%,23%,-2%,-6,CCOC(=O)c1cnc(SCC(=O)Nc2ccccc2C(=O)OC)nc1N

A second format for some results above.
compound	Rango-impB inh	Rango release inh	miR-21 reporter	GLA inh pH 4.5
Cc1ccc(C(=O)C(C)OC(=O)c2n[nH]c(=O)c3ccccc23)cc1 (stereo not given)	-4.0%	14%	-4%	6
O=C(NCCN1CCCCCC1)c1ccc(N2CCCC2=O)cc1	1.1%	4%	-7%	4
CCc1ccc(NC(=O)c2noc3c2CCCCC3)cc1	2.0%	21%	-59%	0
CCN(CC)CCN1C(=O)C(=O)/C(=C(/O)c2ccncc2)C1c1ccccc1F (stereo not given)	3.7%	-11%	2%	-1
Cc1ccc(N2CC(NS(=O)(=O)c3cccs3)CC2=O)cc1 (stereo not given)	2.0%	-9%	.	.
C/C(=N/Nc1ncc(Br)cn1)c1ccc([N+](=O)[O-])cc1	?	-23%	-18%	.
COC(=O)c1ccccc1NC(=O)c1sc(N)nc1C	0.7%	8%	-34%	-2

(more compounds)
Rango-impB inh,Rango release inh,miR-21 reporter,GLA inh pH 4.5,Compound
0.5%,34%,-7%,-8,COCCNCCCOc1ccc(C(C)(C)c2ccccc2)cc1
-6.0%,-9%,0%,3,COc1ccccc1NS(=O)(=O)c1cc(NC(=O)c2ccncc2)ccc1N1CCOCC1
3.5%,17%,-6%,0,CCC(C)S(=O)(=O)c1snnc1C (stereo not given)
0.3%,-20%,-4%,-5,Cc1sc2nc(CSc3nc4ccccc4c(=O)n3CCCN3CCOCC3)[nH]c(=O)c2c1C
?,0%,-16%,2,COc1ccccc1-n1c(-c2cc(-c3ccco3)[nH]n2)n[nH]c1=S
0.4%,-4%,-13%,.,CCOc1ccc(C(=O)Nc2cccc3cccnc23)cc1
-3.2%,-11%,-2%,6,O=C(Cn1nnc(-c2ccccc2)n1)OCc1ccccc1
-0.5%,-27%,.,.,Cc1cc(N2CCc3ccccc32)n2ncnc2n1
-1.1%,-2%,-1%,-20,O=C1C2C3C=CC(C4CC34)C2C(=O)N1c1nccs1 (stereo not given)
-6.0%,1%,2%,-4,CCOC(=O)c1c(N)sc2c1CCCC2=O
-0.3%,0%,-2%,-22,O=C(Nc1ccc(Cl)c(Cl)c1)Nc1ccc([N+](=O)[O-])cn1
